Sa growth inh: S. aureus growth inhibition at 42 and 30 °C, primary screen, LtaS inhibitor project, RN4220, two temperatures; AID 720641, 2013; OD600, 20 h, 42 °C; hits give low values; relative growth, % (test concentration not listed); hit rate 0.53% among 170,000;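 active means growth at 42 °C up to 50% and 20 or more points under that at 30 °C, or under 10% at both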;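 further: 300 nL library stock went into each well; scaled to the means of positive and negative controls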
GIV-Gai inh: inhibitors of GIV peptide binding to Galpha-i3, primary screen, biochemical, fluorescence polarization, FITC-GIV GBA peptide, rat Galphai3; Guanine nucleotide-binding protein G(i) subunit alpha-3 (Rattus norvegicus), P08753; 90 min; hits give low values; scaled: aluminum fluoride 0%, vehicle 100%; percent of control (FP), % (test concentration not listed); hit rate 0.42% among 210,000; AID 1224905, 2016;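 active means replicate mean at 85% of control or lower, very high polarization wells dropped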;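 further: wells of about 15 µL received 100 nL stock; the first replicate is given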
Target sequence (P08753 whole entry, looked up): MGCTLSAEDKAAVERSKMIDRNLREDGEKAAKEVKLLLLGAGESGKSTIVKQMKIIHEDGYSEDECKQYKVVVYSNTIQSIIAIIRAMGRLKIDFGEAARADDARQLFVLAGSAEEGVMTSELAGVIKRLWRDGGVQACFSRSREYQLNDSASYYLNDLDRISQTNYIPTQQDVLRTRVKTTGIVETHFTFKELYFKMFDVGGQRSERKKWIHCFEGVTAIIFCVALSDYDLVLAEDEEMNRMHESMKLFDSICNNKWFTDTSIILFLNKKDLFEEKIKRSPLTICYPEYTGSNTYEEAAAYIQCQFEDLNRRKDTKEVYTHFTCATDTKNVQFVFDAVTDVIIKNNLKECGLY
HCMV NEC inh: inhibitors of HCMV UL50-UL53 interaction, biochemical, HTRF. normalized percent inhibition. AID 1918969, 2023. HCMV UL50-UL53 nuclear egress complex (human cytomegalovirus). hit rate 0.15% among 190,000. inhibition, % (no concentration beside the values);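 active means both replicates at 50% or more, plus weaker picks with an unusually low signal ratio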;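 further: stock transfer was 100 nL into about 20 µL; 0% = negative control wells and 100% = wells with untagged competitor protein; inactives centre near -12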
Sa growth inh second temp: further read-out of Sa growth inh, marked with its call; relative growth, %; measured here: growth at 30 °C;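 optical density after 20 h as mean of two plates; 100% = untreated growth and lower means inhibition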
Starred values were filed as active, the others as inactive; · = not tested or not shown; & = joins results of further samples. Not a hit list. Share with any hit: about 0.8%.

SMILES	Sa growth inh	Sa growth inh second temp	GIV-Gai inh	HCMV NEC inh
CC(C(=O)NCc1ccccn1)N(c1ccccc1)S(C)(=O)=O (stereo not drawn)	94	88	101	-29
Cc1ccc(NC(=O)CCCn2c(=O)c3cccn3c3ccccc32)c(Cl)c1	92	95	100	-25
CCc1ccc(C2C(C(=O)OC)=CN(CC3CCCO3)C=C2C(=O)OC)cc1 (stereo not drawn)	129	82	105	-32
CCc1ccc(-c2[nH]nc3nc(-c4ccc(O)cc4)cc(C(=O)O)c23)cc1	86	84	98	-36
CC1CCCCC1NC(=O)COC(=O)c1ccccc1NCCO (stereo not drawn)	90	94	·	-28
CCC(C)NC(=O)c1onc(C)c1Cl (stereo not drawn)	106	97	102	·
COc1ccc(N2C(=O)c3cc4ccccc4n3CC2(C)C(=O)NC2CCCCC2)cc1 (stereo not drawn)	·	·	102	-9
COc1ccc(C2CC(c3ccc(NS(C)(=O)=O)cc3)=NN2S(=O)(=O)c2ccc(C)cc2)cc1 (stereo not drawn)	·	·	163	-24
COc1cc(/C=C/C(=O)Nc2c3c(nn2C(C)(C)C)CSC3)cc(OC)c1OC	104	85	97	-34
Cn1c(Cc2cccs2)nnc1SCc1ncc(-c2ccccc2)o1	94	76	·	-17
O=C(Nc1ccccc1)OC1CS(=O)(=O)CC1N1CCOCC1 (stereo not drawn)	88	80	99	-24
CCCOc1ccc(C(=O)N2CCOCC2)cc1OC	82	85	·	-4
O=C(NC(=S)Nc1cccc(O)c1)C1CCCCC1	92	76	·	-10
Cn1nc(C(=O)NCc2ccccc2)c2c1CCN(C(=O)COc1ccc(Cl)cc1)C2	·	·	104	-29
CC1=C(C(=O)Nc2ccccc2)C(c2ccc([N+](=O)[O-])cc2)n2ncnc2N1 (stereo not drawn)	·	·	107	-34
Cc1ccc(O)c(C2=Nc3ccccc3N=C(c3ccccc3)C2)c1	·	·	109&101	-6
Cc1cc(C)n(-c2nc(CC(=O)Nc3ccccc3)cs2)n1	·	·	114	-25
COCCNc1nnc(SCc2nnc(-c3ccc(F)cc3)o2)s1	88	85	·	-9
CC1CCCCN1C(=O)NC1(C(F)(F)F)Oc2ccccc2O1 (stereo not drawn)	79	92	99	·
O=C(Nn1c(=O)[nH]c2ccccc2c1=O)c1ccco1	111	91	105	-8
Cc1cn2c(nc1=O)O[C@@H]1C[C@H]2O[C@@H]1CO	100	100	108	10
COc1ccc(C2Nc3ccccc3C(=O)N2c2cccc3ccccc23)cc1CN1C(=O)c2ccccc2C1=O (stereo not drawn)	·	·	96	-16
c1csc(-c2nnc(SCC3COc4ccccc4O3)n2CC2CCCO2)c1 (stereo not drawn)	104	67	·	4
O=C(Cn1c(=O)n(CCCS(=O)(=O)C2CCCCC2)c(=O)c2ccccc21)Nc1ccc(F)cc1	95	92	103	-4
CCOC(=O)c1c(C)[nH]c(C2=NNC(=NC)SC2)c1C	72	86	·	-58
O=C(c1ccc(C(F)(F)F)cc1)n1nccc1-c1cc(-c2ccccc2)no1	99	92	107	-18
Cc1ccccc1-c1ocnc1C(=O)Nc1cccnc1	78	84	111	9
COCCOC(=O)C1=C(C)NC(=O)NC1c1cn(-c2ccccc2)nc1-c1ccc(Br)cc1 (stereo not drawn)	·	·	112&106	-20
COc1ccc(C(=O)c2ccccc2O)c(O)c1	98	98	·	4&-8
N#CCC(=O)c1sccc1-n1cccc1	·	·	101	-28

Two entries drawn at random from those above, as already listed:
SMILES	Sa growth inh	Sa growth inh second temp	GIV-Gai inh	HCMV NEC inh
c1csc(-c2nnc(SCC3COc4ccccc4O3)n2CC2CCCO2)c1 (stereo not drawn)	104	67	·	4
CCOC(=O)c1c(C)[nH]c(C2=NNC(=NC)SC2)c1C	72	86	·	-58

Other structures.
SMILES	Sa growth inh	Sa growth inh second temp	GIV-Gai inh	HCMV NEC inh
Cc1sc2ncn(CC(=O)N3CCN(c4cccc(Cl)c4)CC3)c(=O)c2c1S(=O)(=O)N1CCC(C)CC1	98	95	104	14
Cc1cccc(C(=O)Nc2nc(-c3ccc(Br)cc3)ns2)c1	96	86	99	-22
Cc1ccc2c(c1)N(C(=O)N1CCC(C(=O)NC3CCCCCC3)CC1)CCO2	101	82	101	-14
O=C(O)c1ccc(N2CCCCC2)cc1	109	87	·	-16
Cc1ccc(C)c(-n2c(SCC(=O)NCC(C)C)nnc2-c2cccnc2)c1	93	108	103	9
O=S(=O)(NCCn1c(C(F)(F)F)nc2cccnc21)c1ccc(F)c(Cl)c1	·	·	103	-19
O=C(c1ccccc1F)N1CCN=C1c1ccccc1	99	92	101	-10
COc1ccc(CNC(=O)C(CC(C)C)NS(=O)(=O)c2ccc3nc(C)sc3c2)cc1 (stereo not drawn)	89	85	100	-2
Cc1ccc(NC(=O)CN2C(=O)c3ccccc3C2=O)c(C)c1	90	91	101	-8
CSc1ccccc1NC(=O)CSc1cccc[n+]1[O-]	106	82	·	-24
CC(=O)N1c2ccc(S(=O)(=O)NCC3CCC(C(=O)Nc4cc(C)ccn4)CC3)cc2CC1C (stereo not drawn)	·	·	109	-10
Nc1ccc(-c2cc3ccccc3o2)cc1	85	117	·	-1
Cc1ccc(C)c(NC(=O)C2CCCN(S(=O)(=O)c3cn(C)cn3)C2)c1 (stereo not drawn)	75	94	98	·
COC(=O)c1ccc(-c2ccco2)n1CC(=O)NC(C)c1ccccc1 (stereo not drawn)	101	96	100	5
Cc1c(Cc2ccc(Cl)cc2)c(=O)n2c([nH]c3ccccc32)c1C#N	105	88	100	·

5 entries already listed, sorted by the number in Sa growth inh second temp, highest first:
SMILES | Sa growth inh second temp | GIV-Gai inh
CC1CCCCN1C(=O)NC1(C(F)(F)F)Oc2ccccc2O1 (stereo not drawn) | 92 | 99
CC(C(=O)NCc1ccccn1)N(c1ccccc1)S(C)(=O)=O (stereo not drawn) | 88 | 101
CCOC(=O)c1c(C)[nH]c(C2=NNC(=NC)SC2)c1C | 86 | ·
COc1ccc(CNC(=O)C(CC(C)C)NS(=O)(=O)c2ccc3nc(C)sc3c2)cc1 (stereo not drawn) | 85 | 100
Cc1ccc2c(c1)N(C(=O)N1CCC(C(=O)NC3CCCCCC3)CC1)CCO2 | 82 | 101

New compounds follow.
SMILES	Sa growth inh	Sa growth inh second temp	GIV-Gai inh	HCMV NEC inh
Cn1c(=O)c2c(ncn2CC(=O)NCC#N)n(C)c1=O	95	93	111	-4
CC(C)(C)N1CC(OC(=O)c2ccc(Cl)cc2)C1	95	88	·	-15
CCc1cccc(CC)c1NC(=O)CCS(=O)(=O)c1ccc2c(c1)CCN2C(C)=O	102	82	105	-7
CC(C)CCNC(=O)C1CCN(C(=O)c2cc3sccc3n2C)CC1	114	94	104	·
Cn1c(=N)n(CC(O)c2ccccc2)c2ccccc21 (stereo not drawn)	85	83	100	-11
CCC(=O)Nc1ccc(C)cc1-c1nnc(SC(C)C(=O)Nc2c(C)cc(C)cc2C)[nH]c1=O (stereo not drawn)	·	·	98	-23
CCCN(CCC)C(=O)c1cccc(S(=O)(=O)N2CC(C)CC(C)C2)c1 (stereo not drawn)	136	94	·	-21
CC(C)/C=C1\CCCC\C1=N/n1cnnc1	127	90	·	-20
CCCCNC(=O)C1Cc2ccccc2CN1S(=O)(=O)c1cccs1 (stereo not drawn)	110	101	106	2
Cc1ccc(NC(=O)c2cc(S(=O)(=O)N3CCCC(C)C3)cn2C)c(Br)c1 (stereo not drawn)	108	86	99	·
COc1ccc(C(CC(=O)NCc2ccc(Cl)cc2)N2Cc3ccccc3C2=O)cc1OC (stereo not drawn)	109	81	103	·
CCOC(=O)c1oc2ccc(Br)cc2c1COC(=O)CN1C(=O)C2CC=CCC2C1=O (stereo not drawn)	91	93	·	-23
O=C(c1ccc(N2C(=O)CCS2(=O)=O)cc1)N1CCCC1	·	·	100	4
CC(C)c1ccc(NC(=O)CN(C)S(=O)(=O)c2ccc3c(c2)CC(C)N3C(=O)C2CC2)cc1 (stereo not drawn)	·	·	106	-10
COc1ccc(C2C(C(=O)Nc3ccccc3F)=C(C)NC3=C2C(=O)CC(c2ccccc2)C3)cc1 (stereo not drawn)	·	·	100	-15
CCOC(=O)c1sc(NC(=S)NCc2cc(C)n(C)n2)c(C(=O)OCC)c1C	92	95	108	-9
COc1ccc(-c2cc(C(=O)O)c3c(C)[nH]nc3n2)cc1	115	96	100	-22
Cc1sc2ncnc(Sc3ncnc4sc(C)c(C)c34)c2c1C	89	90	·	4
CCN(C(=O)Cn1ncc(Cl)c(Cl)c1=O)C1CCS(=O)(=O)C1 (stereo not drawn)	104	94	·	-78
CN1/C(=C/C=C/c2oc3ccccc3[n+]2C)Oc2ccccc21	-1.0*	-0.9*	-5.9*	·
O=C(O/N=C1/CCCc2nonc21)C(F)(F)F	105	100	108	3
CCC(C(=O)Nc1cc(F)ccc1F)n1nc(-c2cc(C)ccc2C)ccc1=O (stereo not drawn)	89	72	101	-20
COCCn1c(C)cc(O)c(C(c2ccc(OC)cc2)N2CCCCC2)c1=O (stereo not drawn)	76	90	97	·
COc1cc2[nH]c(=O)n(Cc3ccc(C(=O)N4CCN(c5ccc(Cl)cc5)CC4)cc3)c(=O)c2cc1OC	118	93	103	18
CCOC(=O)N1CCc2c(sc(NCc3sccc3C)c2C(=O)Nc2ccc(OC)cc2OC)C1	114	79	111	·
COc1ccc(N2C(=O)C(CN3CCN(C)CC3)C2c2ccccc2)cc1 (stereo not drawn)	·	·	104	-15
CCc1ccc2c(c1)-c1ccccc1S(=O)(=O)N2CC(=O)NC(C)CC (stereo not drawn)	·	·	99	-10
O=C(Nc1cc(C(F)(F)F)cc(C(F)(F)F)c1)C(=S)NCCNc1cccc2ccccc12	111	73	·	5
O=C(Nc1ccccc1)OC(CSc1ccccn1)CSc1ccccn1	109	91	108	-5
CCn1c(CC(=O)Nc2cccc(OC)c2)nnc1SCC(=O)c1ccccc1	64	72	106	5
COC(=O)CNc1ccccc1OC	99	76	99	-29
CCN1CCC(O)(C#Cc2ccccc2)CC1	106	98	99	-4
Cc1nc(SCc2ccccc2)n[nH]1	107	97	106	-5
Cn1c(-c2cccs2)c(CNCc2ccccc2)c2ccccc21	91	44	112	-1
CCCC1NC(=S)N(c2ccccc2)C1=O (stereo not drawn)	92	86	101	-18
O=C(CN1C(=O)/C(=C\c2cccc(Br)c2)SC1=S)Nc1ccccc1[N+](=O)[O-]	·	·	97	-23
CCOc1ccc(S(=O)(=O)N/N=C(\C)C2CCCCC2)cc1	80	89	·	-5
CCOc1ccccc1N1CC(C(=O)O)CC1=O (stereo not drawn)	108	91	·	-14
NNC(=O)Cc1cccc2ccccc12	116	88	100	-58
O=C(CSc1nnc(Cn2nnc3ccccc32)o1)N1c2ccccc2CCc2ccccc21	118	90	105	-2
CN(CCO)c1ccc(C#N)cn1	103	108	97	0
Cc1ccc(C(=O)CSc2nc3cc(C(F)(F)F)ccc3n2C(C)C)cc1	88	92	103	-20
CCOC(=O)c1ccccc1OCc1cc(C2Nc3ccccc3C(=O)N2c2ccc(F)cc2)ccc1OC (stereo not drawn)	·	·	101	-17
O=C(c1cccn1-c1nnc(N2CCCCC2)s1)N1CCCC1	106	106	105	19
CCOC(=O)c1c(C)n(-c2ccccc2)c2c1cc(OC(=O)c1cccc([N+](=O)[O-])c1)c1ccccc12	·	·	104	-10
O=C(CSc1nc2ccccc2c(=O)n1-c1cccc(S(=O)(=O)N2CCCC2)c1)c1ccc(O)cc1O	104	89	·	-28
CC(C)(C)c1ccc(C(=O)NCC(c2cccs2)S(=O)(=O)c2ccc(F)cc2)cc1 (stereo not drawn)	89	100	105	·
O=C(O)CCCC(=O)Nc1nncs1	89	79	104	-29
COCCNC(=O)c1ccc2c(c1)NC(=O)C(CS(=O)(=O)Cc1ccc(F)cc1Cl)N2 (stereo not drawn)	115	99	156	·
Cc1nc(-c2ccc3c(c2)CCN3C(=O)Cc2ccc(Br)cc2)no1	·	·	105	-21
COc1cc(OC)cc(N2CCN(S(=O)(=O)c3ccc(-n4cnnn4)cc3)CC2)c1	79	88	100	-1
OC(COCC1COc2ccccc2O1)C[N+]1(Cc2ccccc2)CCCC1 (stereo not drawn)	127	78	·	-31
O=C(Nc1cccnc1Sc1ccc(Cl)cc1)c1ccc(C(F)(F)F)cc1	90	88	105	-34
Cc1ccc2cc(C#N)c(SCC(=O)Nc3ccccc3N3CCOCC3)nc2c1C	96	97	100	-12
CCOc1ccc(-c2c(C#N)c(N)nc3sc(C(=O)Nc4ccc(Br)cc4)c(N)c23)cc1	·	·	86	-16
CC(C)Cn1c(=O)c2ccc(C(=O)NC(C)C)cc2n2c(=O)n(CC(=O)NC(C)(C)C)nc12	·	·	106	-45
CC(C)n1c(SCC(=O)O)nc2ccccc21	109	96	98	0
CCC(=O)NCCc1nc2cc(NC(=O)C3CCCCC3)ccc2n1C	·	·	105	0

3 compounds from above with just Sa growth inh second temp:
SMILES	Sa growth inh second temp
O=C(CSc1nc2ccccc2c(=O)n1-c1cccc(S(=O)(=O)N2CCCC2)c1)c1ccc(O)cc1O	89
CC(C)(C)c1ccc(C(=O)NCC(c2cccs2)S(=O)(=O)c2ccc(F)cc2)cc1 (stereo not drawn)	100
O=C(O)CCCC(=O)Nc1nncs1	79

Screens deposited in PubChem by ICCB-Longwood Screening Facility, Harvard Medical School.
